Compound activity: PubChem BioAssay, National Center for Advancing Translational Sciences (NCATS)
Cruzain noTriton: cruzain (T. cruzi) inhibition without detergent | AID 1476 | purified cruzain, Z-FR-AMC fluorescence, no detergent | Potency, µM, inactives show max response, negative = inhibition, most hits filed as inhibitors | 200,000 compounds, 2.3% hits; active means well fitted curve in the direction sought with a large enough effect; inconclusive means small, poorly fitted or top-dose-only effect, or another doubt; inactive means no such curve, though single readings can be large; an effect the other way counts as inactive or inconclusive;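 further: plate controls were enzyme without inhibitor for no effect and buffer without enzyme for full effect; nearly all actives have a fitted effect of over 40% in size; top concentration of the series not given in the record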
Target sequence (P25779 123-467 limits assumed): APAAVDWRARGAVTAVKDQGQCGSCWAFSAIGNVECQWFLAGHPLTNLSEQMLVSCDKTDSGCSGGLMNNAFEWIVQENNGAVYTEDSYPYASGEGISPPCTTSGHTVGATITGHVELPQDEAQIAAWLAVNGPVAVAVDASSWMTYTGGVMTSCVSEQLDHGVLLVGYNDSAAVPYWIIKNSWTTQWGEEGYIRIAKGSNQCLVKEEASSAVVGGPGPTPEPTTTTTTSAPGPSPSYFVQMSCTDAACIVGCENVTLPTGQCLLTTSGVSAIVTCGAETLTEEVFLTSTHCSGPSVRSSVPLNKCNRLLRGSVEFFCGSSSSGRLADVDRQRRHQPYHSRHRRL
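Detergent-free condition (0.00005% Triton X-100) in acetate buffer pH 5.5 with DTT. 1.5 nM enzyme and compound were pre-mixed 15 min, then 2 uM Z-FR-AMC substrate added; reaction progress from fluorescence change between first and third reads (60 s).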
StopGo reporter: lowers the luciferase signal of an FMDV 2A StopGo reporter; human cells with a luciferase reporter of 2A StopGo recoding; control for the full effect not named in the record; Potency, µM (top dose mostly 57.9 µM), without a hit: at the highest dose signal change, negative = less light; 410,000 compounds, 1.2% hits; AID 1159524; active = well fitted falling curve with a large enough effect; inconclusive = small, poorly fitted or top-dose-only effect; inactive = no such curve, though single readings can be large or run the other way; tested in HEK293T cells; further: on the % scale 0 is the no-effect control and ±100 the full control effect; nearly all actives have a fitted effect of over 45% in size; luciferase light after 4 h
RE007 growth inh: less growth of the S. pombe RE007 Vpr strain | 360,000 compounds, 0.21% hits | AID 651644 | S. pombe RE007 Vpr strain, BacTiter-Glo ATP luminescence, 24 h; control for the full effect not named in the record | Potency, µM (highest dose often 92.2 µM), for inactives: at the top dose activity change, negative = less growth; active = well fitted falling curve with a large enough effect; inconclusive = small, poorly fitted or top-dose-only effect; inactive = no such curve, though single readings can be large or run the other way;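 further: on the % scale 0 is the no-effect control and ±100 the full control effect; nearly all actives have a fitted effect of over 50% in size; the assay follows cell death caused by Vpr and the record does not say whether a fall means rescue or toxicity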
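Fission yeast RE007 carrying one integrated HIV-1 vpr copy, seeded at OD 0.01 in PMG+AL medium with 23 nL pinned compound. Grown 24 h at 30 degrees; viability read by BacTiter-Glo luminescence after 5 min.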
SARS PLP yeast: SARS-CoV PLP inhibition in yeast | 330,000 compounds, 0.19% hits | Potency, µM (highest dose often 32.9 µM), inactives show top-dose activity, positive = growth rescue | S. cerevisiae expressing SARS-CoV PLpro, growth rescue; control for the full effect not named in the record; further: 0% is about no effect; nearly all actives have a fitted effect of over 55% in size; growth read by luminescence after 48 h
Cruzain inh Det: blocks cruzain activity in presence of Triton detergent | 200,000 compounds, 0.43% hits | Potency, µM, for the others: max response, negative = inhibition, actives largely listed as inhibitors | purified cruzain, Z-FR-AMC fluorescence, 0.01% Triton | AID 1478 | P25779; active means well fitted curve in the direction sought with a large enough effect; inconclusive means small, poorly fitted or top-dose-only effect, or another doubt; inactive means no such curve, though single readings can be large; an effect the other way counts as inactive or inconclusive;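 further: plate controls were neutral wells for no effect and buffer without enzyme for full effect; nearly all actives have a fitted effect of over 40% in size; top concentration of the series not given in the record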
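Purified cruzain (1.5 nM final) was preincubated with compounds for 15 min at room temperature in 100 mM sodium acetate pH 5.5, 5 mM DTT, 0.01% Triton X-100. Reaction started with 2 uM Z-FR-AMC; AMC fluorescence change over 60 s gave activity.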
Lassa entry inh: inhibitors of Lassa virus binding or cell entry | Lassa virus pseudotype entry inhibition, cell reporter; control for the full effect not named in the record | 300,000 compounds, 1.2% hits | Potency, µM (top dose mostly 37.9 µM), inactives show at the highest dose activity change, negative = inhibition, most hits filed as inhibitors | AID 540256; active means well fitted inhibition curve with a large enough effect; inconclusive means small, poorly fitted or top-dose-only effect, or effect the other way; inactive means flat fitted curve, though single readings scatter; tested in HEK293 cells; further: on the % scale 0 is the no-effect control and ±100 the full control effect; nearly all actives have a fitted effect of over 50% in size; luciferase read-out
Marburg entry inh: Marburg virus entry inhibition | Potency, µM (titrated, usually from 37.8 µM), for inactives: at the highest dose activity change, negative = inhibition, usual class: inhibitors | Marburg virus pseudotyped entry inhibition, cell reporter; control for the full effect not named in the record; about a third of the inactives were read at about 46 µM | AID 540276 | 300,000 compounds, 1.8% hits; active = well fitted inhibition curve with a large enough effect; inconclusive = small, poorly fitted or top-dose-only effect, or effect the other way; inactive = flat fitted curve, though single readings scatter; tested in HEK293 cells; about a fifth of its hits are not listed in these tables; further: on the % scale 0 is the no-effect control and ±100 the full control effect; luciferase read-out
NS1 function inh: blocks influenza NS1 protein function; S. cerevisiae slowed by influenza A NS1, growth recovery by OD600; Potency, µM (highest dose often 46.1 µM), inactives show at the highest dose activity, positive = more growth; 270,000 compounds, 0.4% hits; further: actives are rising curves; nearly all actives have a fitted effect of over 50% in size
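Read-out: OD600 growth recovery of NS1-expressing budding yeast. Cells grown overnight at 30C in -URA glucose medium, washed, resuspended and diluted 1:100 in 2% galactose assay medium, pH 6.0. Same strain lacking NS1 served as positive control.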
Active calls of the source: *; ? = inconclusive; / = not tested or not shown; [ ] = another dose, or the depositor's remark. Unless noted, the call rests on the fitted dose curve; in most records, active means well fitted rising curve with a large enough effect; inconclusive means small, poorly fitted or top-dose-only effect; inactive means no such curve, though single readings can be large or run the other way. Potency means the concentration at half of the fitted maximal effect. Not a hit list, and some 4.7% of all compounds hit somewhere here.

| compound | Cruzain noTriton | StopGo reporter | RE007 growth inh | SARS PLP yeast | Cruzain inh Det | Lassa entry inh | Marburg entry inh | NS1 function inh |
| --- | --- | --- | --- | --- | --- | --- | --- | --- |
| C=CCn1c(SCC2CCCCO2)nc2sc(CC)cc2c1=O (stereo not given) | / | -20% | 8% | -1% | / | / | / | -4% |
| CCc1ccc(-c2cc(C(=O)N/N=C/c3ccco3)[nH]n2)cc1 | / | 17% | 3% | -5% | / | / | -13%[46.1 µM] | / |
| COc1ccc(C2N(C(C)=O)CCN2S(=O)(=O)c2ccc(C)cc2)cc1 (stereo not given) | / | -21% | -29% | 5% | / | -4% | -8% | 4% |
| CCCC/S(CC1CC1(Cl)Cl)=N\S(=O)(=O)c1ccc(C)cc1 (stereo not given) | -28% | 18% | -6% | -8% | 0.1% | 10% | -5% | -22% |
| COc1ccccc1NC(=O)C1=C(C)N(c2ccccc2)C(=S)NC1c1cccc(C(F)(F)F)c1 (stereo not given) | -2% | -22% | -12% | ? | 1.1% | ? | ? | ? |
| O=C1/C(=C/c2cccs2)CCC1C1CCCC1 (stereo not given) | / | -5% | -12% | 4% | / | ? | -21%[46.1 µM] | / |
| Cc1ccc(S(=O)(=O)N2CCC(NC(=O)c3cccnc3)CC2)cc1Cl | / | -8% | -15% | 1% | / | 17% | 13%[46.1 µM] | 2% |
| O=C(c1ccccc1)N1CCN(S(=O)(=O)c2cccc(NS(=O)(=O)c3ccccc3)c2)CC1 | / | 6% | 4% | 3% | / | -12% | ? | / |
| CC(C)c1cc(CNC(=O)CC2C(=O)NCCN2CC2CCCCC2)on1 (stereo not given) | / | 2% | -5% | 0% | / | / | / | 8% |
| Cc1csc(=O)n1CC(=O)OCc1cccc2ccccc12 | -8% | 60%[activator] | 0% | -4% | -9.5% | 27% | 14% | -11% |
| Cc1ccccc1NC(=O)CSc1nc2ccc(NC(=O)CCc3ccccc3)cc2s1 | 2% | ? | / | / | -2.9% | ? | -16%[46.1 µM] | / |
| CC(C)c1ccc(NC(=O)COC(=O)COc2ccccc2)cc1 | 4% | 32% | 9% | 2% | -7.6% | -14% | 20%[46.1 µM] | -7% |
| COc1ccc(/C=N/NC(=O)C(=O)N2CCCCCC2)cc1 | / | 33%[activator] | ? | 0% | / | 5%[46.1 µM] | 9%[46.1 µM] | 25% |
| COc1ccc(/C=N/NC(=O)c2ccc3nc[nH]c3c2)c(OC)c1 | / | -2% | 6% | 7% | / | / | / | 2% |
| CCC(C)(C)C1CCc2c(sc(NC(=O)c3ccoc3C)c2C(N)=O)C1 (stereo not given) | ? | -14% | -13% | 1% | -1.8% | 3% | -8% | 1% |
| Cc1ccc(CC(=O)OCCNC(=O)c2cccnc2)cc1 | 7% | / | 9% | -2% | -0.6% | -13% | 10% | 0% |
| Cc1ccc(NC(=O)CSc2nnc(-c3cnccn3)n2Cc2ccco2)cc1 | -14% | 22% | 2% | -1% | -4.4% | -10% | ? | -6% |
| CCOC(=O)c1c(NC(C)=O)sc2c(OC(C)=O)cccc12 | -8% | / | -1% | -5% | 0.0% | -10% | 7% | 0% |
| Oc1ccccc1Cn1nnc2ccccc21 | / | 9% | 11% | -4% | / | 20%[46.1 µM] | -5%[46.1 µM] | -11% |
| O=C(OCCCOc1ccc(F)cc1)c1ccc(O)cc1O | / | -13% | 10% | -11% | / | -7% | -1% | -66% |
| O=C1OC(c2ccccc2)c2ccccc21 (stereo not given) | 2% | 3% | 5% | 6% | -1.8% | 15% | 20% | 17% |
| CCCCOc1ccc(S(=O)(=O)Nc2cccc(-c3ccc(N4CCOCC4)nn3)c2)cc1 | 12% | 31%[activator] | / | / | -4.2% | -9%[46.1 µM] | / | / |
| O=C(NCCCCCCNC(=O)c1ccc(Br)s1)c1ccc(Br)s1 | ? | -10% | -8% | 18% | -5.4% | -17% | -29% | 12% |
| Cc1cc2nc(C)c(=O)n(C)c2cc1C | 3% | 8% | -2% | -14% | -1.7% | 3% | ? | -4% |
| O=C(CCCN1C(=O)c2cccc3cccc(c23)C1=O)NC1CCS(=O)(=O)C1 (stereo not given) | / | 48%[activator] | 0% | 0% | / | 4% | ? | -12% |
| COc1ccc(C(=O)Nc2nc3ccc(S(=O)(=O)N4CCCC4)cc3s2)cc1 | 5% | 40%[activator] | / | / | -1.9% | 24%[46.1 µM] | / | / |
| O=C(CCNC(=O)c1ccccc1)NC1CCCc2ccccc21 (stereo not given) | / | 3% | 6% | -1% | / | -5% | ? | / |
| CC(C)CNc1nnnc2c1sc1nc(N3CCOCC3)c3c(c12)CC(C)(C)SC3 | 16% | ? | 7% | -8% | -6.3% | 14µM* | ? | 1% |
| O=C(CCCN1C(=O)C(c2ccccc2)Oc2cccnc21)Nc1ccc(Br)cc1F (stereo not given) | -2% | -20% | / | / | -5.3% | -20%[46.1 µM] | / | / |
| CC(C(=O)OCC(=O)Nc1ccc(S(N)(=O)=O)cc1)N1C(=O)c2ccccc2C1=O (stereo not given) | / | 0% | 5% | 11% | / | ? | 0% | / |
| O=C(CN1CCOCC1)Nc1ccccc1-c1ccccc1 | 5% | 0% | 6% | 9% | 0.9% | 3% | 4% | ? |
| C=CCc1cccc2cc(C(=O)OCC(=O)c3ccccc3)c(=O)oc12 | 0% | 2% | -5% | -2% | -1.3% | -10% | 6% | 1% |
| O=C(NCCCNC(=O)c1cnccn1)c1cccc(Cl)c1 | / | 0% | 9% | 3% | / | -1%[46.1 µM] | 18%[46.1 µM] | -2% |
| COc1cccc(-n2c(N)cc(=O)nc2SCC(=O)N2CCN(c3ccccc3)CC2)c1 | / | 2% | -23% | 3% | / | 2% | -9% | 1% |
| C=C(C)c1cccc(C(C)(C)NC(=O)N(Cc2ccccc2)Cc2ccco2)c1 | ? | -38% | 12% | -3% | 3.3% | 5% | ? | 4% |
| O=C(COC(=O)C1CC1)Nc1ncc(C(F)(F)F)cc1Cl | / | 4% | -1% | -2% | / | 10%[46.1 µM] | 15%[46.1 µM] | 1% |
| Cc1ccc(C)c(S(=O)(=O)Nc2ccc3oc(C)c(C(=O)O)c3c2)c1 | / | 0% | -9% | -3% | / | 21%[46.1 µM] | 0%[46.1 µM] | 13% |
| CS(=O)(=O)c1ccc(NCCc2ccc(S(N)(=O)=O)cc2)c([N+](=O)[O-])c1 | / | -8% | -17% | 2% | / | ? | -8% | 7% |
| O=C(NC1CCCCC1)C(c1ccncc1)N(C(=O)Cn1nnc(-c2cccs2)n1)C1CCCC1 (stereo not given) | 12% | 0% | 1% | -9% | -2.0% | ? | -4% | -19% |
| COc1ccc(C(=O)N(CN2CCCC2=O)c2cc(C)on2)cc1OC | -5% | -1% | -12% | -6% | 2.2% | 10% | ? | -3% |
| Cc1nc([N+](=O)[O-])c(Br)n1CC(=O)c1ccc(Br)cc1 | -7% | 13µM* | -9% | -33% | -0.3% | -2% | ? | -149% |
| CC(C)(C)OC(=O)CC12CCCCC1NC(=O)O2 (stereo not given) | / | 0% | -7% | 4% | / | / | / | 2% |
| COc1cc(C(=O)NCC(c2cccs2)N2CCOCC2)c([N+](=O)[O-])cc1OC (stereo not given) | / | 1% | -7% | 0% | / | -18% | 0%[46.1 µM] | / |
| O=S1(=O)NC(=NCCOCCO)c2ccccc21 | / | 6% | 21% | -1% | / | 23%[46.1 µM] | 10%[46.1 µM] | 0% |
| O=C(NCC1CCN(C(=O)c2ccc([N+](=O)[O-])cc2)CC1)c1ccc([N+](=O)[O-])cc1 | / | -27% | 0% | -2% | / | / | -12%[46.1 µM] | -4% |
| CC(C)c1ccc(OCC(=O)N2CCN(C(=O)c3ccco3)CC2)cc1 | / | -3% | -10% | 1% | / | 17% | 6% | 9% |
| O=C(COc1ccccc1Cc1ccccc1)Nc1cccnc1 | / | ? | 18% | -6% | / | 2% | -28% | / |
| COc1ccc(OCC(=O)NNC(=O)c2ccc(-c3ccccc3)cc2)cc1 | ? | 0% | -4% | 10% | 2.5% | / | 0% | 19% |
| CC1(c2nnc(-c3ccc(Cl)cc3)o2)CC(c2ccc([N+](=O)[O-])cc2)=NO1 (stereo not given) | / | -26% | -18% | 0% | / | / | / | -7% |

Structures above that have fluorine, in the order listed:
| compound | Cruzain noTriton | StopGo reporter | RE007 growth inh | SARS PLP yeast | Cruzain inh Det | Lassa entry inh | Marburg entry inh | NS1 function inh |
| --- | --- | --- | --- | --- | --- | --- | --- | --- |
| COc1ccccc1NC(=O)C1=C(C)N(c2ccccc2)C(=S)NC1c1cccc(C(F)(F)F)c1 (stereo not given) | -2% | -22% | -12% | ? | 1.1% | ? | ? | ? |
| O=C(OCCCOc1ccc(F)cc1)c1ccc(O)cc1O | / | -13% | 10% | -11% | / | -7% | -1% | -66% |
| O=C(CCCN1C(=O)C(c2ccccc2)Oc2cccnc21)Nc1ccc(Br)cc1F (stereo not given) | -2% | -20% | / | / | -5.3% | -20%[46.1 µM] | / | / |
| O=C(COC(=O)C1CC1)Nc1ncc(C(F)(F)F)cc1Cl | / | 4% | -1% | -2% | / | 10%[46.1 µM] | 15%[46.1 µM] | 1% |

Profiles from above:
`O=C(NCC1CCN(C(=O)c2ccc([N+](=O)[O-])cc2)CC1)c1ccc([N+](=O)[O-])cc1` reads Cruzain noTriton: /; StopGo reporter: -27%; RE007 growth inh: 0%; SARS PLP yeast: -2%; Cruzain inh Det: /; Lassa entry inh: /; Marburg entry inh: -12%[46.1 µM]; NS1 function inh: -4%
`CC(C)(C)OC(=O)CC12CCCCC1NC(=O)O2` (stereo not given) reads Cruzain noTriton: /; StopGo reporter: 0%; RE007 growth inh: -7%; SARS PLP yeast: 4%; Cruzain inh Det: /; Lassa entry inh: /; Marburg entry inh: /; NS1 function inh: 2%
